Screening results (PubChem)
H5N1 CPE: antiviral screen in MDCK cells, H5N1 avian flu; cytopathic effect, luminescence, 72 h; hits give high values; no value below 0 was filed and about half of the inactive calls have no number; reference of the scale not given here; inhibition, % at 50 µM; 96,000 compounds, 0.07% hits; AID 740; in the data active = inhibition above about 25%
Active calls of the source: *; i = inactive. A portion of the library. The share of hits here may be higher or lower than overall.

Preview, 4 compounds:
SMILES	H5N1 CPE
COc1ccc(S(=O)(=O)N(CC(=O)NC(C)C)Cc2ccccc2)cc1	0.6
CCCC1(C(=O)OC)NC(c2ccco2)C2C(=O)N(c3ccc(C)cc3)C(=O)C21 (configuration not stated)	i
CCOC(=O)c1ccc(N(C(=O)c2cnccn2)C(C(=O)NC2CCCCC2)c2cn(C)nc2C)cc1 (configuration not stated)	i
COc1ccccc1-n1c(C)cc(C=O)c1C	0.7

This part in full, from the start:
SMILES	H5N1 CPE
COc1ccc(S(=O)(=O)N(CC(=O)NC(C)C)Cc2ccccc2)cc1	0.6
CCCC1(C(=O)OC)NC(c2ccco2)C2C(=O)N(c3ccc(C)cc3)C(=O)C21 (configuration not stated)	i
CCOC(=O)c1ccc(N(C(=O)c2cnccn2)C(C(=O)NC2CCCCC2)c2cn(C)nc2C)cc1 (configuration not stated)	i
COc1ccccc1-n1c(C)cc(C=O)c1C	0.7
Brc1ccc(-c2nc(-c3cccnc3)no2)o1	i
Cc1nc2c(ccc3nc(NC(=O)c4ccc5c(c4)OCCO5)sc32)s1	i
Cc1ccc2[nH]c3c(c2c1)CN(C(=O)CN1CCCc2ccccc21)CC3	i
CCc1ccccc1N(CC(=O)O)S(C)(=O)=O	i
COc1cc(CNC2CCCC2)cc(Cl)c1OCc1ccccc1F	i
CCCCn1c(=N)n(CC(=O)C(C)(C)C)c2ccccc21	1.4
N#Cc1ccc(CSc2nnc(-c3ccccn3)n2-c2ccc(Cl)cc2)cc1	i
CCOc1ccccc1NC(=O)C1CCN(S(=O)(=O)c2c(C)nn(C)c2C)CC1	0.4
CCC(=O)c1cn(CC(=O)NCC2CCCO2)c2ccccc12 (configuration not stated)	i
O=C(CS(=O)(=O)c1cn(Cc2ccc(Cl)cc2)c2ccccc12)N1CCCCC1	1.3
COC(=O)c1ccc(C(=O)OC)nc1	0.5
Cc1ccc(NC(=O)CCc2ccc(S(=O)(=O)NC3CCCCC3)cc2)cc1	0.8
COc1ccc(N(CC(=O)Nc2cccc(N(C)S(C)(=O)=O)c2)S(C)(=O)=O)cc1OC	0.0
O=C(Cn1cnc2ccccc21)OCC(=O)N1CCCc2ccccc21	i
CCCCC/C(=N\O)c1c[nH]c2ccccc12	i
COC(=O)c1ccccc1NC(=O)COc1ccc(S(=O)(=O)N2CCCC2)cc1C	1.5
Cn1nc(SCC(=O)O)sc1=S	i
COc1cccc(Nc2ncccc2C(=O)NCc2ccccc2)c1	i
Cc1cccc(Cn2c(=O)n(-c3ccc(CC(=O)NCc4ccco4)cc3)c(=O)c3sccc32)c1	i
CN(C)c1nc(N2CCN(c3ccccc3)CC2)c(C#N)c(=O)o1	1.7
CN1C(=O)CS(=O)c2ccc(C(=O)NC3CC3)cc21 (configuration not stated)	1.6

Remaining list, next part
SMILES	H5N1 CPE
Cc1ccc(S(=O)(=O)Nc2ccccc2-c2ccccc2NS(=O)(=O)c2ccc(C)cc2)cc1	i
COc1ccc(N2C(=O)C3CCCN3C2c2cccc(OC)c2OC)cc1 (configuration not stated)	i
Cc1ccc(-n2ncc3c(=O)n(Cc4cccnc4)cnc32)cc1	0.2
COc1ccccc1-c1nnc(SCC(=O)Nc2ccc(S(N)(=O)=O)cc2)n1C	i
COc1ccc(C2NC(=O)NC(O)(C(F)(F)F)C2C(=O)c2ccc(C)cc2)cc1 (configuration not stated)	i
COc1cccc(-n2c(COc3ccc(C)cc3)nnc2SCC(N)=O)c1	1.1
CCC(CC)c1nnc(NC(=O)c2c(-c3ccccc3)noc2C)s1	i
Cc1ccc(NC(=O)N/C=C/c2ccco2)c(C)c1	i
CCCNC(=O)c1c(N)n(Cc2ccco2)c2nc3ccccc3nc12	i
O=C(COC(=O)CCC(=O)c1ccc(F)cc1)Nc1ccc(N2CCOCC2)cc1	i
O=C(O)CCCCCNc1nc(=S)[nH]c2ccccc12	i
N#C/C(=C/c1ccc2c(c1)OCO2)C(=O)NCCc1c[nH]c2ccccc12	0.3
Cc1cc2c(=O)n(CC(=O)N3CCN(c4ccccc4)CC3)cnc2s1	0.5
CN(C)CCCNC(=O)c1ccc(-c2nc(-c3ccc(Cl)cc3)cs2)cc1	i
CC(NC(=O)c1cc2ccccc2o1)c1cccs1 (configuration not stated)	0.5
Cc1ccccc1-n1nc(C)c2cc(C(=O)N3CCN(S(=O)(=O)c4ccc(F)cc4)CC3)sc21	3.5
CCOC(=O)N1CCC(N2CC34C=CC(O3)C(C(=O)Nc3ccc(C)cc3)C4C2=O)CC1 (configuration not stated)	0.9
COc1ccccc1NC(=O)c1cccs1	1.1
COc1ccc(-n2c(N)c(C(=O)NCC3CCCO3)c3nc4ccccc4nc32)c(OC)c1 (configuration not stated)	i
Cc1ccc(C(=O)Nn2c(O)c(C=C3N=c4ccccc4=N3)sc2=S)cc1	0.1
Cc1ccnc(-n2c(CCN3C(=O)c4ccccc4C3=O)nc3ccccc3c2=O)c1	2.1
CCCCN(Cc1ccco1)C(=O)Cn1ncc2c(=O)oc3ccc(C)cc3c21	1.4
CC(C)n1c(NCc2cc(Cl)ccc2O)nc2ccccc21	3.6
Cc1cc(OCC(=O)Nc2ccc3c(c2)OCCO3)ccc1Cl	i
Cc1ccc(-n2c(SCC(=O)N3CCOCC3)nnc2-c2ccncc2)cc1	0.2

Other structures.
SMILES	H5N1 CPE
COC(=O)C1C(=O)C2=C(CC1C)NC(C)=C(C(=O)OCCOc1ccccc1)C2c1ccc(C)o1 (configuration not stated)	0.0
CCCCN(CCCC)S(=O)(=O)c1ccc2[nH]c(=O)[nH]c2c1	i
NC(=O)COc1ccc(=O)n(-c2ccccc2)n1	i
COC(=O)C1=C(CN2CCSCC2)NC(=O)NC1c1cc(C)ccc1C (configuration not stated)	i
Cc1cc(C(F)(F)F)c2c(=O)[nH]c(=O)n(Cc3ccccc3)c2n1	0.2
CCOC(=O)Nc1nnc(-c2ccc(OC)c(OC)c2)s1	i
Cc1onc(-c2ccccc2)c1C(=O)Nc1nnc(COc2ccc(Cl)cc2)s1	0.7
O=C(c1cc(-c2cccs2)on1)N1CCOCC1	i
O=C(NC1CCCCC1)C1CCN(S(=O)(=O)c2cccc3nsnc23)CC1	i
O=C(O)C(Cc1ccccc1)n1cccc1 (configuration not stated)	i
O=S(=O)(NCc1ccccc1Cl)c1cnc[nH]1	i
CCOc1cc(C(c2c(C)[nH][nH]c2=O)c2c(C)[nH][nH]c2=O)ccc1OCc1ccc([N+](=O)[O-])cc1	1.0
CCOCCCNC(=O)C(NC(=O)CNC(=O)c1ccccc1)c1ccccc1 (configuration not stated)	i
O=C(C(NS(=O)(=O)c1cccs1)c1ccccc1)N1CCN(c2ccccc2)CC1 (configuration not stated)	2.6
COc1ccc(S(=O)(=O)Cc2ccc(C(=O)NCc3cccs3)o2)cc1	1.4
C=CCSC(=C(C#N)C#N)c1cc2c([nH]1)CCCC2	i
CCNS(=O)(=O)c1ccc(NC(=O)Nc2cccc(C(F)(F)F)c2)cc1	i
CCOc1cc(CNC(C)C)c(Cl)cc1OCC(=O)NCCc1ccccc1	i
O=C(NCC(=O)N(c1cccnc1)C(C(=O)NCc1ccco1)c1ccccc1)c1ccco1 (configuration not stated)	i
O=C(Nc1ccccc1N1CCCC1)c1cc2ccccc2o1	1.4
CCOC(=O)CSc1nnc(Cc2ccccc2)n1CC1CCCO1 (configuration not stated)	1.4
COc1cc2c(cc1OC)C(c1ccc(N(C)C)cc1)CC(=O)N2 (configuration not stated)	0.1
Cc1cc(-c2ccco2)n(-c2ccccc2)n1	i
Cc1nc(CCNC(=O)Cc2ccccc2)cs1	i
Cn1nnnc1SCCNCc1ccccc1F	0.9

Further entries:
SMILES	H5N1 CPE
O=C(CN1CCN(CC(=O)c2ccc(F)cc2)CC1)Nc1ccccc1Cl	i
COc1ccc(-c2cc(C(=O)n3cnc4ccccc43)c3ccccc3n2)cc1	i
Clc1ccc(-c2nnc3n2CCCCC3)cc1	i
O=C(COC(=O)CNC(=O)C1CCCCC1)Nc1ccc2ccccc2c1	0.1
Fc1c(F)c(F)c(CSc2nc3ccccc3[nH]2)c(F)c1F	i
O=C(c1ccccc1NS(=O)(=O)c1cccc([N+](=O)[O-])c1)N1CCOCC1	0.1
COc1ccccc1/C=C/C=N/N1CCN(Cc2ccc(Cl)cc2)CC1	0.1
CCCCCC1CC(=O)N(Cc2ccccc2)C(=O)N1 (configuration not stated)	i
Cc1ccc(C(=O)COC(=O)c2cnccn2)cc1	1.6
O=C(Nc1ccc(Cl)cc1)C(c1ccccc1)N(CCO)CCO (configuration not stated)	i
O=C(Oc1ccccc1)c1ccccc1OS(=O)(=O)c1ccccc1	i
COC(=O)c1ccc(Cl)c(NC(=O)CN2CCN(Cc3ccccc3)CC2)c1	i
Cc1cc(NC(=O)C2(c3ccccc3)CCCC2)no1	0.9
CCC(C)C(NC(=O)OC(C)(C)C)C(=O)NC(C(=O)N1CCCC1C(N)=O)C(C)CC (configuration not stated)	i
CCOC(=O)c1c(C)nc2c(c1-c1ccccc1)C(=O)CC(C)(C)C2	0.1
CCOC(=O)c1cnc(SCC(=O)Nc2cc(C(F)(F)F)ccc2N2CCOCC2)nc1N	i
CC(C)(C)c1ccc(C(=O)c2c[nH]c(C(=O)NCCCn3ccnc3)c2)cc1	i
CCCCOC(=O)C1=C(C)Nc2ncnn2C1c1ccc(OCC)c(OC)c1 (configuration not stated)	i
N#CC1=C(N)Oc2n[nH]c(CSc3ccccc3)c2C12C(=O)Nc1ccccc12 (configuration not stated)	i
COc1ccccc1CNC(=O)CCN1C(=O)COc2ccccc21	1.5
CN1CCN(C(=O)c2ccc3c(=O)n(Cc4ccc(Cl)cc4)c(=S)[nH]c3c2)CC1	i
O=C(Nc1ccccc1[N+](=O)[O-])C1C(c2ccccc2)=C1c1ccccc1	i
O=C(NCCOC(=O)c1ccc(S(=O)(=O)N2CCOCC2)cc1)c1cccnc1	2.0
CNC(=O)c1sc(-c2cccnc2)nc1C	0.3
C=CCn1c(CSCc2ccccc2)nnc1SCC(=O)NCc1ccccc1	0.2

Among those listed so far, 4 contain a COOH group:
SMILES	H5N1 CPE
CCc1ccccc1N(CC(=O)O)S(C)(=O)=O	i
Cn1nc(SCC(=O)O)sc1=S	i
O=C(O)CCCCCNc1nc(=S)[nH]c2ccccc12	i
O=C(O)C(Cc1ccccc1)n1cccc1 (configuration not stated)	i

Not a retest: 3 of the compounds above.
SMILES	H5N1 CPE
COC(=O)C1C(=O)C2=C(CC1C)NC(C)=C(C(=O)OCCOc1ccccc1)C2c1ccc(C)o1 (configuration not stated)	0.0
CCCCN(CCCC)S(=O)(=O)c1ccc2[nH]c(=O)[nH]c2c1	i
NC(=O)COc1ccc(=O)n(-c2ccccc2)n1	i

Other compounds
SMILES	H5N1 CPE
N=c1c(S(=O)(=O)c2ccccc2)cc2c(=O)n3ccccc3nc2n1Cc1ccco1	0.3
CC(C)c1nnc(SCC(=O)NCc2ccco2)n1C	1.8
CC(=O)NC12CC3CC(C1)CC(C(=O)OCC(=O)c1ccc4c(c1)OCCO4)(C3)C2	2.2
O=C(C(c1ccccc1)c1ccccc1)N1CCN(Cc2ccccn2)CC1	i
COc1ccccc1N1CCN(c2cc(=O)n(Cc3ccc(F)cc3)c(=O)[nH]2)CC1	i
COc1cccc(-c2nnc(SCCOc3ccc4c(C)cc(=O)oc4c3)o2)c1	0.8
CS(=O)(=O)N1CCN(C(=O)NC23CC4CC(CC(C4)C2)C3)CC1	0.2
Cc1cc(C)n2c(SCC(=O)Nc3ccc(Cl)cn3)nnc2n1	2.0
CCn1nc(C)c(Oc2ccccc2O)c1C	0.2
CCOc1ccc(OCC)c(NC(=O)C2CCCN(S(=O)(=O)c3c(C)noc3C)C2)c1 (configuration not stated)	i
COCCNC(=O)CSc1ncnc2sccc12	i
Cc1c(C(=O)NC(C)c2ccccc2)c(-c2ccccc2)nn1-c1ccccc1 (configuration not stated)	0.3
COc1ccccc1NC(=S)N(CCc1c(C)[nH]c2ccccc12)Cc1cccs1	i
N#Cc1c2c(c(NCCN3CCOCC3)n3c1nc1ccccc13)CCCC2	3.3
O=C(C1CCC1)N1CCc2cc(S(=O)(=O)N3CCN(c4ccccn4)CC3)ccc21	1.5
Cc1csc2ncc(C(=O)N(Cc3ccccc3)c3ccccn3)c(=O)n12	1.3
N#Cc1cc(-c2ccccc2)cnc1Sc1ccc(Cl)cc1	2.0
COc1ccc2[nH]c(=O)c(CN(Cc3ccco3)C(=O)c3ccccc3)cc2c1	1.3
CCC(C)C1C(C#N)=C(N)Oc2n[nH]c(-c3ccccc3)c21 (configuration not stated)	i
COc1cc(C(=O)NCC(=O)n2nc(C)cc2C)cc(OC)c1OC	i
CCOc1ccc(N=Cc2c(O)cc(C)oc2=O)cc1	1.2
COc1cccc(C(=O)O/N=C(\N)c2ccncc2)c1	i
COC(=O)C1=NN(C(=O)c2ccc(Cl)cc2)C(O)(c2ccccc2)C1 (configuration not stated)	i
COc1ccc(C(=O)NNC(=O)Cc2ccc(-c3ccccc3)cc2)cc1OC	i
CC12CN3CCN(C1)CC(C)(C3)C2=NO	0.2

(listing goes on)
SMILES	H5N1 CPE
COc1cccc(C(O)CC(N)=O)c1 (configuration not stated)	i
Cc1ccc(CC(=O)Nc2nc3c(s2)CCCC3)cc1	i
CCn1cc(C(=O)NCC2CCCO2)c(=O)c2cc(S(=O)(=O)N3CCCCC3)ccc21 (configuration not stated)	i
CCOC(=O)/C(=N\Nc1ccccc1)S(=O)(=O)c1ccccc1	i
CCCCSc1nnc(-c2ccc(NC(=O)CC)cc2)n1C	i
Nc1c(C(=O)Nc2nccs2)sc2nc(-c3cccs3)cc(C(F)(F)F)c12	i
Cc1ccc(NC(NC(=O)c2cccs2)C(Cl)(Cl)Cl)cc1 (configuration not stated)	8.4
COc1cc(/C=C2\C(=O)NC(=O)N(c3ccccc3)C2=O)cc(OC)c1OC	i
O=C(Nc1c(F)cccc1F)c1ccc(-n2cncn2)nc1	i

Reprinted at random: six entries already listed, in no set order.
SMILES	H5N1 CPE
Cc1ccc(NC(NC(=O)c2cccs2)C(Cl)(Cl)Cl)cc1 (configuration not stated)	8.4
CCCCSc1nnc(-c2ccc(NC(=O)CC)cc2)n1C	i
O=C(Nc1c(F)cccc1F)c1ccc(-n2cncn2)nc1	i
CCn1cc(C(=O)NCC2CCCO2)c(=O)c2cc(S(=O)(=O)N3CCCCC3)ccc21 (configuration not stated)	i
Nc1c(C(=O)Nc2nccs2)sc2nc(-c3cccs3)cc(C(F)(F)F)c12	i
COc1cccc(C(O)CC(N)=O)c1 (configuration not stated)	i
